# Six1-Eya2 blk – qHTS Assay for Inhibitors of the Six1/Eya2 Interaction; activity change, % (no concentration beside the values); AlphaScreen GST-Six1/His-Eya2 binding, biochemical; active compounds read low; control for the full effect not named in the record; 360,000 tested, 0.56% active; Homeobox protein SIX1 (Homo sapiens) + Protein phosphatase EYA2 (Homo sapiens), …; AID 651725, 2012; in the data active = activity change below about -65%; inconclusive = about -30% to -65%; inactive = above about -30%; also: % is scaled to controls: 0 for no effect and ±100 for the full control effect
#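 Compounds are tested against tagged Six1 and Eya2 proteins bridged by glutathione donor and nickel acceptor beads; after a one-hour incubation at 37 °C without light, AlphaScreen emission is recorded.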
# CtBP-E1A blk – qHTS Assay for Inhibitors of the CtBP/E1A Interaction | AlphaScreen GST-E1A/His-CtBP binding, 1536-well; active compounds read low; control for the full effect not named in the record | 340,000 tested, 0.49% active | CtBP / adenovirus E1A interaction (AlphaScreen) | activity change, % (test concentration not listed); in the data active means activity change below about -65%; inconclusive means about -30% to -65%; inactive means above about -30%; also: % is scaled to controls: 0 for no effect and ±100 for the full control effect
#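 Homogeneous bead-based format: GST-tagged E1A captured on glutathione donor beads, His-tagged CtBP on nickel acceptor beads; compounds precede bead addition by 2 h at 37 °C.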
# D2 ag – Beta-Arrestin HTS for Positive Allosteric Modulators of the Human D2 Dopamine Receptor: Agonists | D(2) dopamine receptor (Homo sapiens), P14416 | DiscoveRx PathHunter D2 beta-arrestin, luminescence, 90 min; 100% = 57 uM dopamine signal | activation, % (concentration not given with the values) | 360,000 tested, 0.084% active; in the data active = activation above about 40%; inconclusive = about 15% to 40%; inactive = below about 15%; also: compound concentration not given in the record; the text of the record calls up to 30% inactive
# Target sequence (P14416 whole entry, looked up): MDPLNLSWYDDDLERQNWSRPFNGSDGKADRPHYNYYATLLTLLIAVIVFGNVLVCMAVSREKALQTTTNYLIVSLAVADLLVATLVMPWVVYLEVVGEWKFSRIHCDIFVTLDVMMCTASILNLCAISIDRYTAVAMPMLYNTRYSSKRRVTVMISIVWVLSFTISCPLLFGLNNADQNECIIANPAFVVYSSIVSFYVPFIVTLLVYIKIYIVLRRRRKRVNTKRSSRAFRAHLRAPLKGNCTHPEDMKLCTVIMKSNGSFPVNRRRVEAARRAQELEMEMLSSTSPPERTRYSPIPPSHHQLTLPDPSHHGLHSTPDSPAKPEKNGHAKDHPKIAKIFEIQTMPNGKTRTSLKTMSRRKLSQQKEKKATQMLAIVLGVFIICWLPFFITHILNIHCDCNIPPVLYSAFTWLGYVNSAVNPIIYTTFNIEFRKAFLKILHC
#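 Agonist mode: compounds alone added to overnight-plated D2 PathHunter cells for 90 min at 37 C, with 57 uM final dopamine (EC100) defining full response. Beta-arrestin recruitment detected by chemiluminescent reagent, read after 1 h at ambient temperature.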
# TRPML1 ag – qHTS for Agonists of the Human Mucolipin Transient Receptor Potential 1 (TRPML1). Mucolipin-1 (Homo sapiens), Q9GZU1. TRPML1-expressing cells, Ca2+ dye fluorescence, FDSS; host cell line not named in the record; reference of the full effect not given here. activation, % (test concentration not listed). 410,000 tested, 0.12% active; in the data active = activation above about 50%; inconclusive = about 30% to 50%; inactive = below about 30%; also: 0% is about no effect; the text of the record puts the active cut at 80%
# Target sequence (Q9GZU1 whole entry, looked up): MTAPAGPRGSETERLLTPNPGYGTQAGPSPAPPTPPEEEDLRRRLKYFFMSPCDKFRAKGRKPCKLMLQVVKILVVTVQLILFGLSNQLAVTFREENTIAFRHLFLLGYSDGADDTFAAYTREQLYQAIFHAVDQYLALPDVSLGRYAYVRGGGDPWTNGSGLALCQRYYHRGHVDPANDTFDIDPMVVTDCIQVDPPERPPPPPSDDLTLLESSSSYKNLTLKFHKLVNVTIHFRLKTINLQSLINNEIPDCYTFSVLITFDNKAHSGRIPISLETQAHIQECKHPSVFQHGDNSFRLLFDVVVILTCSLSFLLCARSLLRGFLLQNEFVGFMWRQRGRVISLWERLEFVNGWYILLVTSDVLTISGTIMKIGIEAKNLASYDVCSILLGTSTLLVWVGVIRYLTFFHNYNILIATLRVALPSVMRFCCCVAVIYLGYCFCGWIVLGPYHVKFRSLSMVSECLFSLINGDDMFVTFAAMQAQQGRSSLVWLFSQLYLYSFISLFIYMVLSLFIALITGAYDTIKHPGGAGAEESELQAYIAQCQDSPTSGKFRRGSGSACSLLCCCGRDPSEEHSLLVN
#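 In this qHTS format, compounds were pin-transferred onto Ca8-dye-loaded TRPML1-DL cells induced with Tet overnight, and intracellular Ca2+ fluorescence was recorded kinetically for 110 s after a 10 s baseline. A subsequent 4uM final 54-4 (EC80) addition followed by a second 110 s read served as the antagonist phase.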
# PINK1 modulator – A Quantitative High throughput Screen to Identify Chemical Modulators of PINK1 Expression; 410,000 tested, 0.2% active; PINK1 immunofluorescence, high-content cytometry, 24 h; AID 624263, 2012; Potency, µM (doses to about 76.6 µM), for inactives: at the top dose activation (PINK1 increase), actives largely listed as activators; active = well fitted activation curve with a large enough effect; inconclusive = small, poorly fitted or top-dose-only effect; inactive = flat fitted curve, though single readings scatter; cell line not stated here;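 also: potency is read from the fitted curve at half-maximal effect; % of control where 0% means no effect; nearly all actives have a fitted effect of over 65% in size; a mitochondrial uncoupler was the plate control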
#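 Readout is PINK1 immunofluorescence, quantified alongside mitochondrial, cell and nuclear markers by laser-scanning microplate cytometry. Cells from a stable line were exposed to compound titrations (5 concentrations) for 24 hours, with CCCP controls.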
# D2 PAM – Beta-Arrestin HTS for Positive Allosteric Modulators of the Human D2 Dopamine Receptor: Potentiators; 360,000 tested, 0.23% active; potentiation, % (concentration not given with the values); DiscoveRx D2 beta-arrestin cells, luminescence, 90 min; 100% = 57 uM dopamine signal; AID 624464, 2012; D(2) dopamine receptor (Homo sapiens), P14416; active = potentiation of 50% or more; inconclusive = 30% to 50%; inactive = 30% or less;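 also: compound concentration not given in the record; tested on top of an EC20 dose of dopamine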
#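 D2 cells co-treated with compound plus 50 nM dopamine (EC20) for 90 min at 37 deg C to detect potentiation. Beta-arrestin recruitment was read as enzyme-fragment luminescence after 1 h at ambient temperature. Full response was set by 57 uM dopamine.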
# * hit, by the source's call; u = inconclusive; x = no result given; & = joins results of further samples; [ ] = another dose, or the depositor's remark.
SMILES,Six1-Eya2 blk,CtBP-E1A blk,D2 ag,TRPML1 ag,PINK1 modulator,D2 PAM
O=C(CNCc1cccs1)Nc1ccc(S(=O)(=O)N2CCCCC2)cc1,4,2,-0.8,0.0,0.0%,1
Cc1ccc(C(=O)CSc2nnc(-c3ccc4[nH]c(C)c(C)c4c3)o2)cc1C,-2,10,-3.1,-0.1,0.5%[38.3 µM],3
COc1ccc(N2C(=O)C3ON(C4SC(=S)N(C)C4(C)C)C(c4ccc(Cl)cc4)C3C2=O)cc1 (stereo not drawn),16,18,-4.4,1.3,1.0%,-12
O=C(c1ccc2c(=O)n3c(nc2c1)CCCCC3)N1CCc2ccccc21,-6,x,-4.8,0.0,2.6%,-10
O=C(NCC(c1cccs1)N1CCOCC1)c1cc2ccccc2oc1=O (stereo not drawn),7,1,-4.6,-0.2,7.1%,-5
Cc1ccc(-n2c(SCC(=O)Nc3cc(C)on3)nc3c([nH]c4ccccc43)c2=O)cc1,0,4,-1.3,0.0,8.6%,-8
CCc1ccc(OCCCC(=O)NCc2ccccc2)cc1,6,8,-4.3,0.3,8.5%,-17
O=C(c1ccco1)N1CCN(c2ccc([N+](=O)[O-])cn2)CC1,13,1,-1.9,0.6,-0.5%,-5
CCNC(=O)c1cccc(NC(=O)CN2C(=O)NC3(CCCCC3)C2=O)c1,7,10,-1.4,-0.1,-2.9%,7
O=C(NCc1ccncc1)[C@@H]1CCCN1C(=O)[C@@H]1CCCN1C(=O)c1cccc2ccccc12,2,4,x,-0.7,-1.0%,x
COc1ccccc1N1CCN(C(=O)CC(NC(=O)c2ccccc2Cl)c2ccccc2)CC1 (stereo not drawn),2,1,-3.9,0.0,2.5%,-11
Cc1ccc2c(c1)[C@H]1[C@H](CO2)[C@H](c2ccccc2)[C@]2(C)C(=O)Nc3ccc(Cl)cc3C(=O)N12,-12,-12,-1.4,-0.3,3.6%,-7
Cc1ccc(N=C2NC(=O)/C(=C/C=C/c3ccco3)S2)cc1C,-27,-13,-3.7,0.0,11%,-23
COc1ccccc1CN1C[C@@H]2C[C@@H](c3[nH]c4c(C)cccc4c3C)N3CCC[C@@]23C1=O,14,x,-5.4,1.0,2.6%,-10
Cc1ccc2sc(N(CCCN(C)C)C(=O)CN3C(=O)c4ccccc4C3=O)nc2c1C,-8,-22,-7.8,1.7,4.4%,-6
Cn1nc(-c2ccc(C(=O)N3CCN(Cc4ccccc4)CC3)cc2)c2ccccc2c1=O,-10,0,2.0,0.9,x,-7
COc1ccc(N2CCN(C(CNC(=O)C(=O)NCCCO)c3ccco3)CC2)cc1 (stereo not drawn),-1,x,4.2,0.6,0.0%,-9
CC1Cc2nc(SCC(=O)Nc3nc4ccccc4s3)n(C)c(=O)c2S1 (stereo not drawn),-15,-9,3.5,1.3,3.3%,2
CC(=O)NC(CCS(C)(=O)=O)C(=O)Nc1cccc2ccccc12 (stereo not drawn),2,-2,-0.4,0.2,2.0%,-4
COc1ccccc1NS(=O)(=O)c1ccc(C(=O)N2CCN(c3ccccc3O)CC2)cc1,-6,1,1.7,0.5,u,u

# Some values from the results shown:
# In CtBP-E1A blk, COc1ccc(N2C(=O)C3ON(C4SC(=S)N(C)C4(C)C)C(c4ccc(Cl)cc4)C3C2=O)cc1 (stereo not drawn) is listed with 18
# In TRPML1 ag, O=C(NCc1ccncc1)[C@@H]1CCCN1C(=O)[C@@H]1CCCN1C(=O)c1cccc2ccccc12 is listed with -0.7
# In TRPML1 ag, Cc1ccc(N=C2NC(=O)/C(=C/C=C/c3ccco3)S2)cc1C is listed with 0.0
# In TRPML1 ag, Cc1ccc2sc(N(CCCN(C)C)C(=O)CN3C(=O)c4ccccc4C3=O)nc2c1C is listed with 1.7
# In PINK1 modulator, CCNC(=O)c1cccc(NC(=O)CN2C(=O)NC3(CCCCC3)C2=O)c1 is listed with -2.9%

# The listing continues:
SMILES,Six1-Eya2 blk,CtBP-E1A blk,D2 ag,TRPML1 ag,PINK1 modulator,D2 PAM
COc1cccc2c1OCC(CN1CCN(CCC(C)C)C(CCO)C1)=C2 (stereo not drawn),26,2,-4.7,-0.8,-0.5%,-8
COc1ccc(-c2c(C)oc3c(CN4CCCC(C)C4)c(O)ccc3c2=O)cc1OC (stereo not drawn),-6,3,-2.8,0.3,0.7%,-2
Cc1cc(C)c2c(N)c(C(=O)N3CCN(c4ncccn4)CC3)sc2n1,6,-1,0.1,0.3,-2.2%,-7
O=C(O)CCCC(=O)N(Cc1ccccc1)Cc1ccccc1,28,46,-2.6,-0.3,69%[38.3 µM],-12
O=C(O)CC(NNC(=O)c1ccccc1)C(=O)Nc1cccc([N+](=O)[O-])c1 (stereo not drawn),3,1,0.5,0.4,0.7%,-8
CC1=C(C(=O)OCCCCCl)C(c2cc3c(cc2Br)OCO3)NC(=O)N1 (stereo not drawn),2,1,0.3,1.4,-1.0%,-3
O=C(COC(=O)c1ccc([N+](=O)[O-])s1)Nc1ccc(F)cc1,-11,-29,11,4.6,-0.4%,2
O=C(COC(=O)C1CC1)Nc1ccc(N=Nc2ccccc2)cc1,-3,-22,-1.1,0.3,1.7%,3
CC(=O)Nc1ccc(S[C@@H](CCN2CC[C@H](C(C)(C)C)CCC2=O)c2ccccc2)cc1,-13,-6,2.3,0.2&-1.0,28%,-1
CC(C(=O)N1CCCCC1)N(C)CC(=O)Nc1ccc(F)c(F)c1F (stereo not drawn),1,2,0.8,-0.3,0.7%,-6
O=C(COc1ccc(S(=O)(=O)N2CCOCC2)cc1)NCCc1ccc(Cl)cc1,-1,-11,-3.0,-0.8,-1.0%,-16
Cc1nnc(-c2ccco2)c2cn(-c3cccc(Br)c3)nc12,u,u,2.1,0.7,0.3%,-2
CC(C)(C)NC(=O)C(OC(=O)c1ccco1)c1ccccc1F (stereo not drawn),1,x,5.1,-1.3,0.2%,1
COC(=O)c1ccc(C2/C(=C(/O)c3ccc(OC)cc3)C(=O)C(=O)N2c2cc(C)on2)cc1 (stereo not drawn),-2,6,-1.1,0.4,0.4%,-7
Fc1ccc(-n2c(-c3ccc4ccccc4n3)n[nH]c2=S)cc1Cl,-2,-1,-1.3,0.7,-0.1%,-20
CC(=O)Nc1ccc(S(=O)(=O)NCCC(=O)N2CCCCC2)cc1,3,-5,3.9,-1.1,5.1%,17
CCOC(=O)N1CCN(C(=O)CN(C)S(=O)(=O)c2ccc(OCC)cc2)CC1,9,-5,-3.5,-0.8,0.7%,-3
CCOc1ccccc1-n1c(SCC(=O)NC(C)CC)nnc1-c1ccoc1C (stereo not drawn),-1,-2,-0.8,2.9,0.1%,3
CCc1cc(=O)oc2cc(C)cc(OC(C)C(=O)NCCCN3CCOCC3)c12 (stereo not drawn),1,3,-11,-0.7,0.9%,-15
COc1ccc(C2=CC(=O)C[C@H](c3ccc4c(c3)OCO4)C2)cc1,-14,x,-1.4,0.1,3.3%,-6
C/C(=N/NC(=O)CNS(=O)(=O)c1ccc(C)cc1)c1cccc([N+](=O)[O-])c1,0,9,-1.8,-0.9,1.7%,-4
O=C(Nc1ccc(NC(=O)c2ccc([N+](=O)[O-])o2)cc1Cl)c1ccco1,2,3,14,-1.1,1.3%,13
CCOC(=O)c1ccc(NC(=O)c2c(N)n(C)c(=O)n(C)c2=O)cc1,13,2,0.7,-0.3,2.2%,-26
COc1c(C)cc(C(=O)C2CCCN(C(=O)c3cccc(F)c3)C2)cc1C (stereo not drawn),-4,5,-2.4,-0.2,3.0%,-2
COc1ccccc1CN1CCCC(N2CCN(c3ccc(F)cc3)CC2)C1 (stereo not drawn),5,-1,-0.5,-1.0,-1.8%,-30
Cc1ccccc1OCC(=O)NNC(=O)CCN1C(=O)c2ccccc2C1=O,2,3,-1.1,0.0,0.5%,-4
CC(=O)Nc1ccc(S(=O)(=O)NC(C)C(=O)NCC(c2ccco2)N(C)C)cc1 (stereo not drawn),3,3,-0.4,0.3,1.5%,-11
COc1cccc(NC(=O)CN(C)C(=O)c2cc(-c3ccccc3)nc3ccccc23)c1,-3,-9,-3.9,2.5,-8.6%,-23
COc1ccccc1NC(=O)CSc1nc2n[nH]c(C)c2c(=N)n1-c1ccccc1Cl,u,-69*,-3.4,3.0,0.4%[38.3 µM],-8
CCN(CC(=O)Nc1ccc2c(c1)OCCO2)C(=O)COc1cc(C)ccc1Cl,-3,7,-4.7,-0.4,0.6%,-12
CCOC(=O)Cc1csc(NC(=O)CN2CCOCC2)n1,-3,-19,0.7,-0.1,-1.1%,-4
CN(C)c1ccc(C2NCCS2)cc1 (stereo not drawn),-27,u,-1.8,-0.5,-1.5%,-12
O=C(NC1CCS(=O)(=O)C1)Oc1ccccc1 (stereo not drawn),-10,2,-2.4,-0.6,-0.3%,-16
COc1ccc(-n2nnnc2SCC(=O)NC2CCS(=O)(=O)C2)cc1 (stereo not drawn),9,-1,-2.4,0.4,1.4%,-12
C[C@@H]1NS(=O)(=O)[C@H]2C[C@@H]3C=C[C@]2(O3)[C@H]1OC(=O)Nc1ccc(C(F)(F)F)cc1[N+](=O)[O-],5,4,-4.2,-0.4&-0.3,-0.5%,-1
COc1ccc(CNC(=O)CCN2C(=O)c3ccccc3C2=O)cc1,16,9,0.7,x,7.7%,-6
O=C1CC(c2ccccc2)C(C(=O)Nc2ccccc2F)N1 (stereo not drawn),3,6,-0.4,-0.3,0.0%,1
COc1ccc(C(=O)Nc2cc(OC)ccc2OC)cc1,-5,-1,-2.3,-0.2,1.4%,-5
CN(c1ccccc1)S(=O)(=O)c1cccc(C(=O)OCC(=O)Nc2ccc3[nH]c(=O)[nH]c3c2)c1,-6,-28,1.2,-0.5,1.1%,-4
Cc1cc(C(=O)Nc2ccc(N3CCOCC3)c(Cl)c2)c(C)o1,5,x,1.2,-1.0,0.1%,-10
CCCC(=O)N1CC(=O)Nc2ccc(C)cc2C1c1ccc(F)cc1 (stereo not drawn),-2,3,0.7,-1.0,2.2%,2
CC(=O)N/C(=C\c1ccc(Cl)cc1)C(=O)O,4,x,-1.4,0.3,-0.2%,-1
c1cc(-c2cnc3cccnn23)c2cccnc2c1,-10,-7,-2.0,-0.9,-0.1%,2
O=C(Nc1ccc2c(c1)OCCO2)C1CCCN(S(=O)(=O)Cc2ccccc2)C1 (stereo not drawn),4,1,-4.5,-0.6,-0.6%,-1

# Four records picked at random from the list so far:
SMILES,Six1-Eya2 blk,CtBP-E1A blk,D2 ag,TRPML1 ag,PINK1 modulator,D2 PAM
c1cc(-c2cnc3cccnn23)c2cccnc2c1,-10,-7,-2.0,-0.9,-0.1%,2
CCCC(=O)N1CC(=O)Nc2ccc(C)cc2C1c1ccc(F)cc1 (stereo not drawn),-2,3,0.7,-1.0,2.2%,2
O=C(Nc1ccc2c(c1)OCCO2)C1CCCN(S(=O)(=O)Cc2ccccc2)C1 (stereo not drawn),4,1,-4.5,-0.6,-0.6%,-1
CC(=O)N/C(=C\c1ccc(Cl)cc1)C(=O)O,4,x,-1.4,0.3,-0.2%,-1

# The order is random. Share with any hit: about 1.3%.
